Bioassay records from PubChem BioAssay.
Sa ugtP lethal: growth inhibition of ugtP-null S. aureus, primary screen, RN4220 ugtP deletion, OD600; 330,000 tested, 0.54% active; growth inhibition, % (no concentration beside the values); 16 h; some inactives read as strong as hits;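 active = z-score under -3 and OD600 up to 0.15 on both plates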;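 also: plate controls were untreated wells for no effect and antibiotic for full effect; wells of about 80 µL received 100 nL stock; the first replicate is given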
PrP UTR inh: inhibition of PrP 5' UTR reporter expression; cell-based PrP 5' UTR mRNA reporter, plate reader; inhibition, % (no concentration beside the values); 340,000 tested, 0.35% active;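 active = every replicate at 50% or more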;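 also: 0 = median of the neutral control wells; tested in H4 reporter cells; numbers are from one replicate; inactives centre near -14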
RN4220 kill: growth inhibition of S. aureus RN4220, primary screen, OD600; inhibition, % (concentration not given with the values); 16 h; AID 1259311, 2017; 330,000 tested, 0.33% active;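 active = z-score of -3 or lower and OD600 up to 0.18 on both plates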;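 also: plate controls were untreated cells for no effect and reference antibiotic for full effect; stock transfer was 100 nL into about 80 µL; one replicate is shown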
BJeLR viability: MLPCN primary cell-based screen for lethality selective to Ras in HRASV12 cells. 300,000 tested, 0.17% active. inhibition, % (test concentration not listed). AID 1554, 2009. BJeLR (HRASV12) viability, CellTiter-Glo ATP luminescence, 48 h; reference of the scale not given here;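 active = replicate mean above 50%; inconclusive = above 50% but judged a plate artefact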;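 also: 50 nL library stock added to about 25 µL; numbers are from one replicate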
Mtb hypoxia rep: PubChem AID 1159583; fluorescence inhibition, % (concentration not given with the values); 300,000 tested, 0.1% active; M. tuberculosis hypoxia-regulated fluorescent reporter, fluorescence;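 active = 35 to 45% if threefold the growth effect, above 45% if 1.5-fold the growth effect; inactive = the rest, general growth blockers included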;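 also: wells of about 50 µL received 100 nL stock; 0% = vehicle wells and 100% = reference inhibitor wells; whole bacteria with a GFP reporter of the hypoxia response; strong numbers were not always called active; many hits fall short of the cut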
Bead autofluor: flagged as autofluorescent in microsphere protease counterscreen; AID 624483; 360,000 tested, 3.1% active; fluorescence intensity (no concentration beside the values); compound autofluorescence counterscreen, microsphere flow cytometry; stronger effect = higher value;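 active = at least 3 SD above the mean of all compounds, about 16000 in these data; inconclusive = too few beads counted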;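 also: 100 nL of 1 mM stock went into each well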
Mtb hypoxia rep growth: also measured in Mtb hypoxia rep; calls as there; growth inhibition, %; measured here: M. tuberculosis growth (absorbance);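 0% = vehicle and 100% = reference antibiotic; read after six days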
Active calls of the source: *; ? = inconclusive; nt = no result given. Not a hit list. About 4% of those tested had a hit in this group.

SMILES	Sa ugtP lethal	PrP UTR inh	RN4220 kill	BJeLR viability	Mtb hypoxia rep	Mtb hypoxia rep growth	Bead autofluor
O=C(Cn1c(C(F)(F)F)nc2ccccc21)Oc1cccc(C(F)(F)F)c1	8	2	4.4	0	nt	nt	3548
COc1ccc(OCCCNCCc2ccccc2)cc1	3	-44	7.0	1	-3	-4	3415
C=CCn1c(SCC(=O)Nc2ccc(OC)cc2)nnc1-c1cnccn1	8	-14	4.4	4	4	3	5982
COc1ccc(C(=O)Cn2c(NCCCl)nc3ccccc32)cc1	16	-9	0.4	1	15	7	3661
Cc1csc(NC(=O)C2CC(=O)N(c3ccc(C)c(C)c3)C2)n1 (configuration not stated)	-6	-19	-4.4	-3	0	-2	4522
C=CCN1C=CC(=C/C=C(/C#N)C(=O)OCC)C=C1	-6	-66	1.2	-4	nt	nt	2899
O=[N+]([O-])c1ccccc1/C=C/C=NN1CCCCC1	5	nt	12	nt	16	9	nt
COc1ccc(Cl)cc1C(=O)NNC(=O)c1csc(N2CCOCC2)n1	2	-60	-1.3	2	-6	2	8021
CCC(=O)Nc1cc(OC)cc(OC)c1	3	-22	3.3	-10	8	4	6039
O=C(NCc1cccs1)c1cccnc1C(=O)O	4	-13	1.9	3	9	5	17016*
CC(=O)c1ccc(OCC(C)C)c(Cc2c(O)nc(N)[nH]c2=O)c1	13	-12	5.2	-6	14	10	2500
CCOc1ccc(CCNC(=O)Cc2ccc(NC3=NC4CS(=O)(=O)CC4S3)cc2)cc1 (configuration not stated)	8	9	-6.8	-2	5	5	4383
CCCC[n+]1ccc(-c2nc3ccc([N+](=O)[O-])cc3[nH]2)cc1	7	-20	3.5	-5	-10	2	2498
CSc1nc(N)nc(N(C)C)n1	12	-11	0.3	-8	2	-8	2887
O=C(N/N=C/c1ccc(O)cc1O)c1ccc(CN2C(=O)c3cccc4cccc2c34)cc1	nt	22	nt	14	nt	nt	4083
COc1ccc(S(=O)(=O)N2CCC(C(=O)N3CCCC3)CC2)cc1C	4	-11	4.4	-5	20	9	2980
O=C(CC1C[C@H](C(=O)N2CCCCC2)[C@@]2(CCc3ccccc3)c3[nH]c4ccccc4c3CCN2C1=O)NCc1ccco1 (some centres not stated)	-2	-6	3.3	nt	-2	-7	3899
CCC(=O)N1N=C(c2ccc(NS(C)(=O)=O)cc2)CC1c1ccc(N(C)C)cc1 (configuration not stated)	6	-34	1.7	-5	-8	2	2490
O=C(c1ccc(S(=O)(=O)Nc2ccccc2)cc1)N1CCCCCCC1	5	-4	8.3	-4	-3	-4	4754
O=C(CCNC(=O)Cn1ccc2ccccc2c1=O)NCCN1CCN(c2ccccc2F)CC1	7	-15	1.0	11	nt	nt	2857
CCOc1ccc(S(=O)(=O)N2CCCCC2)cc1NC(=O)CCc1ccc(OC)cc1	-10	-17	-3.5	nt	-9	3	4691
Cc1cc(C)cc(N(CC(=O)NC2CCCCC2)C(=O)CCC(=O)Nc2cc(C)ccn2)c1	2	-5	-3.6	nt	nt	nt	4619
COc1ccc(-c2csc(NC(=O)c3ccco3)n2)cc1	-24	-70	8.1	5	6	5	3172
O=C(Nc1c(C(=O)N2CCOCC2)cnn1-c1ccccc1)c1ccco1	-5	3	-3.8	-4	-2	6	23770*
Cc1c(Nc2cc(N3CCCCCC3)c3nonc3c2[N+](=O)[O-])c(=O)n(-c2ccccc2)n1C	2	-15	1.1	-4	nt	nt	2855

Limited to PrP UTR inh, Mtb hypoxia rep and Bead autofluor (2 entries from above):
SMILES	PrP UTR inh	Mtb hypoxia rep	Bead autofluor
Cc1csc(NC(=O)C2CC(=O)N(c3ccc(C)c(C)c3)C2)n1 (configuration not stated)	-19	0	4522
CCOc1ccc(S(=O)(=O)N2CCCCC2)cc1NC(=O)CCc1ccc(OC)cc1	-17	-9	4691

Further structures
SMILES	Sa ugtP lethal	PrP UTR inh	RN4220 kill	BJeLR viability	Mtb hypoxia rep	Mtb hypoxia rep growth	Bead autofluor
Cc1ccc(S(=O)(=O)NN2C(=O)/C(=C/c3ccccn3)SC2=S)cc1	67	-28	83	2	2	8	2141
COc1ccc(Cl)cc1NC(=O)CN(C)CC(=O)Nc1cc(OC)c(OC)c(OC)c1	-7	-40	2.0	25	-13	6	3979
O=C(COC(=O)c1ccccc1C(=O)c1ccccc1)NCc1ccc(F)cc1	18	-3	4.6	0	6	21	4512
CCN(CC)CCCOC(=O)C(OC(C)C)(c1ccccc1)c1ccccc1	7	-1	1.6	6	8	7	?
Cc1ccc(C(=O)NCc2ccc(Cl)cc2)o1	5	-12	4.4	-3	nt	nt	4505
Cn1c(/C=C/c2ccc(Br)cc2)nc2ccccc2c1=O	-14	-32	5.2	-6	13	4	3725
O=C(/C=C/c1ccc(Cl)cc1)Nc1nccs1	-1	-103	7.4	2	15	10	4796
Oc1ccccc1C1CCCCC1c1ccccc1 (configuration not stated)	31	-31	-2.3	-6	10	5	3707
C=CCn1c(/N=C/c2ccc(OC)cc2)nc2ccccc21	nt	-15	nt	-3	nt	nt	4013
O=C(O)c1ccc(-n2nncc2-c2ccccc2)cc1	13	-9	-1.7	-7	-1	-3	5755
Cc1ccc2nc(N3CCN(C(=O)c4ccc(F)cc4)CC3)c(C#N)cc2c1	9	-11	12	1	7	0	4690
CCOc1ccc(Nc2cc(C)c3ccccc3n2)cc1	18	-34	-6.7	10	-15	-13	4293
CCCCNC(=S)Nc1cc(S(=O)(=O)N2CCCCC2)ccc1C	-2	-12	4.1	-12	6	1	4739
NC(=O)CN1C(=O)C2CCCCN2C(=O)c2ccccc21 (configuration not stated)	1	0	-1.4	3	nt	nt	3507
CCOc1cccc2cc(C(N)=O)c(=NCc3ccccc3)oc12	-11	3	9.2	-13	13	1	8262
CC(=O)NC(Cc1cc(C)ccc1C)C(=O)N1CCN(C(=O)c2ccc([N+](=O)[O-])cc2)CC1 (configuration not stated)	4	-41	6.0	-1	12	1	4049
Clc1cccc(Cl)c1/C=N\Nc1nccs1	nt	-28	nt	-4	nt	nt	5545
Cc1ccc(-c2nn(CCC#N)cc2C=C(C#N)C#N)cc1	9	-24	4.0	1	15	2	7201
CC(=NNC(=O)c1nnn(-c2nonc2N)c1-c1ccc(Cl)c(Cl)c1)c1ccncc1	-4	nt	1.8	nt	-9	-5	nt
CCOc1ccc(CCNS(=O)(=O)c2c(C)nc3scc(C)n3c2=O)cc1OCC	6	6	0.8	-7	0	1	3103
CN1C(=O)C(C(=O)Nc2ccccc2F)c2ccccc21 (configuration not stated)	2	-26	12	9	6	8	3525
O=C(CN1C(=O)NC2(CCCC2)C1=O)N1CCN(c2ccccc2O)CC1	8	-4	5.1	2	1	0	4281
CCOC(=O)CSc1nc2ccccc2c(=O)n1-c1ccc(C(=O)NCCOC)cc1	-3	-11	1.9	1	-2	-4	21747*
O=C(OCC(O)CN1CCCCC1)C12CC3CC(CC(C3)C1)C2 (configuration not stated)	0	-9	3.5	6	3	9	3979
Cc1cccc(Oc2ccccc2NC(=O)C2=COCCO2)c1	11	-14	11	nt	6	6	3389

Random excerpt: 3 records from the list
SMILES	Sa ugtP lethal	PrP UTR inh	RN4220 kill	BJeLR viability	Mtb hypoxia rep	Mtb hypoxia rep growth	Bead autofluor
CCCCNC(=S)Nc1cc(S(=O)(=O)N2CCCCC2)ccc1C	-2	-12	4.1	-12	6	1	4739
O=C(/C=C/c1ccc(Cl)cc1)Nc1nccs1	-1	-103	7.4	2	15	10	4796
CCOc1ccc(CCNS(=O)(=O)c2c(C)nc3scc(C)n3c2=O)cc1OCC	6	6	0.8	-7	0	1	3103

One compound at a time, as listed above. Screens in order: Sa ugtP lethal, PrP UTR inh, RN4220 kill, BJeLR viability, Mtb hypoxia rep, Mtb hypoxia rep growth, Bead autofluor
`Cc1ccc(-c2nn(CCC#N)cc2C=C(C#N)C#N)cc1` across the screens: 9, -24, 4.0, 1, 15, 2, 7201
`NC(=O)CN1C(=O)C2CCCCN2C(=O)c2ccccc21` (configuration not stated) across the screens: 1, 0, -1.4, 3, nt, nt, 3507
`Clc1cccc(Cl)c1/C=N\Nc1nccs1` across the screens: nt, -28, nt, -4, nt, nt, 5545
`COc1ccc(Cl)cc1NC(=O)CN(C)CC(=O)Nc1cc(OC)c(OC)c(OC)c1` across the screens: -7, -40, 2.0, 25, -13, 6, 3979
`O=C(/C=C/c1ccc(Cl)cc1)Nc1nccs1` across the screens: -1, -103, 7.4, 2, 15, 10, 4796

Carrying on:
SMILES	Sa ugtP lethal	PrP UTR inh	RN4220 kill	BJeLR viability	Mtb hypoxia rep	Mtb hypoxia rep growth	Bead autofluor
CCOC(=O)C1CCCN(c2c(NCCCN(CC)c3cccc(C)c3)c(=O)c2=O)C1 (configuration not stated)	2	-17	-0.2	6	nt	nt	2791
COc1ccc(N=Cc2c(O)n(-c3ccc(C)cc3)c(=O)[nH]c2=O)cc1	3	-15	3.8	-10	5	6	4216
O=C(OCC(=O)c1ccc(Cl)cc1Cl)c1cnccn1	7	-9	0.4	2	0	8	3584
COc1ccc(-c2nc(CS(=O)CC(=O)NCc3ccccn3)c(C)o2)cc1 (configuration not stated)	-2	-6	-2.7	6	1	11	4678
COc1ccc(C2C(C(C)=O)=C(O)C(=O)N2c2ccc(F)cc2)cc1 (configuration not stated)	2	-23	0.1	3	13	0	nt
COc1ccc(OCC(=O)Nc2ccc(OC)c(S(=O)(=O)N3CCCCC3)c2)cc1	1	-28	0.5	10	-8	4	6228
O=C(Nc1ccccc1)c1ccc2nc(-c3ccco3)c(-c3ccco3)nc2c1	-10	-9	18	4	8	-5	19000*
CC(C)NCc1cccc([N+](=O)[O-])c1	14	2	5.0	-12	10	13	2047
CCOC(=O)c1cc(CC)sc1/N=C/c1c(O)[nH]c(=S)[nH]c1=O	2	-13	5.0	-6	11	2	7713
COC(=O)C1=C[C@@H](C(=O)OC)[C@@H]2C3=C(C(=O)C2(C)C)[C@H](C)n2c(=O)n(-c4ccccc4)c(=O)n2[C@@H]3C1	nt	-31	nt	8	nt	nt	2925
CN(C)S(=O)(=O)c1ccc(NC(=O)CSc2n[nH]c(=O)n2C2CC2)cc1	12	-24	0.5	-2	5	6	4639
O=C(c1ccc(COc2ccc(F)cc2)o1)n1cc(Br)cn1	-2	-18	0.7	-9	-4	11	4181
CCNC(=O)ON=C1CCCCC1c1ccc([N+](=O)[O-])cc1[N+](=O)[O-] (configuration not stated)	-2	nt	34	nt	-10	9	nt
COc1ccccc1N1CCN(c2cc(=O)n(-c3ccc(Cl)cc3)c(=O)[nH]2)CC1	14	-1	5.5	-3	-2	1	6067
O=C(COc1ccc2c(c1)OCO2)NC12CC3CC(CC(C3)C1)C2	-2	-42	1.6	3	nt	nt	2362
COC(=O)NCCOC(=O)N(O)c1ccc(Br)cc1	-1	nt	11	nt	-8	2	8133
Cc1c(CCC(=O)N2CCC(C(=O)O)CC2)c(=O)oc2cc3oc4c(c3cc12)CCCC4	-6	3	9.0	-2	nt	nt	5111
Cc1ccc(/C=C/C(=O)N2CCN(c3ncccn3)CC2)o1	3	-25	0.5	-8	-1	3	2471
CCOc1cc(/C=N/n2cnnc2)c(Br)cc1O	nt	-9	nt	2	nt	nt	8109
Cc1nc2ccc(NC(=O)N3CCCCC3)cc2s1	2	-9	2.2	8	0	8	7865
Cn1c(Cc2ccccc2)nnc1SCc1ccc(C(=O)O)cc1	3	-1	-2.8	2	-2	1	10119
O=C(c1cc(=O)[nH]c2ccccc12)N1CCN(S(=O)(=O)c2ccc3ccccc3c2)CC1	6	-13	6.7	-12	6	10	3588
O=C(COC(=O)c1ccccc1Cl)NCc1ccco1	1	-20	4.5	nt	7	-6	2887
CCOc1cccc(OCCOc2ccccc2[N+](=O)[O-])c1	10	-55	5.6	-3	nt	nt	2806
COc1ccc(C(C#N)(CCC#N)CCC#N)cc1OC	5	-3	3.9	-7	nt	nt	2724
Cc1ccc(S(=O)(=O)NCC(=O)N2CCN(S(=O)(=O)c3ccc(Cl)cc3)CC2)cc1C	-2	-6	2.5	1	3	-1	5562
